HIV TAR-Tat = TAR RNA-Tat peptide displacers, HIV-1, primary screen, biochemical, FRET, FAM/TAMRA-labeled Tat; HIV-1 TAR RNA, Tat peptide displacement FRET; hits give high values; z-score (concentration not given with the values); hit rate 0.6% among 100,000; AID 1259389, 2018;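 note: score is relative to mean and SD of negative controls; some compounds called inactive have numbers as strong as hits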
CDC25B-CDK2 inh = primary biochemical HTRF screen for blockers of M-phase inducer phosphatase 2 binding to CDK2/cyclin A. P30305+P24941. HTRF CDC25B-CDK2/CyclinA binding, anti-His/anti-Flag; hits give high values. z-score (concentration not given with the values). hit rate 0.72% among 94,000;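 note: score is relative to mean and SD of negative controls; strong numbers were not always called active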
* hit, by the source's call; · = not tested or not shown.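 Rule for the calls: active = z-score from 3 up in half or more of its runs; inactive = the rest.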

molecule,CDC25B-CDK2 inh,HIV TAR-Tat
CC(=O)Nc1ccc(S(=O)(=O)N2CCCc3ccccc32)cc1,-1.18,·
COc1ccc(NC(=O)c2cc3c(s2)-c2ccccc2SC3)cc1OC,0.65,-0.92
CCN1CCN(C(c2ccc(Cl)cc2)c2sc3nc(C)nn3c2O)CC1 (configuration not stated),-1.58,·
O=[N+]([O-])c1ccc(CSc2ccccn2)cc1,-2.81,·
CC1CCCN(C(=O)Cn2cc(S(=O)(=O)N3CCCC3)c(S(=O)(=O)N3CCCC3)c2)C1 (configuration not stated),·,1.34
C=C(C)Cn1cnc2c(oc3nc4c(cc32)CCCC4)c1=O,·,1.38
Cn1c2ccccc2c2cnn(CC(=O)N3CCC(C(N)=O)CC3)c(=O)c21,-0.36,1.11
Cc1noc2ncn(CC(=O)NCC(C)C)c(=O)c12,-1.69,2.67
COc1ccc(CCC(=O)Nc2nnc3n2CCS3)cc1,·,0.55
Cc1nn(CC(=O)Nc2ccc3nc4n(c(=O)c3c2)CCCC4)c(C)c1[N+](=O)[O-],-1.42,·
CCCCN(Cc1cccs1)S(=O)(=O)c1ccc(-c2ccc(=O)[nH]n2)s1,·,1.15
O=S(=O)(Cc1ccccc1)N1CCC(c2nc3ccccc3s2)CC1,-0.88,0.62
Cc1ccc2cc3c(nc2c1)N(c1ccccc1)CC3,0.34,-0.4
COC(=O)c1cc2c(cc1NC(=O)c1cc(-c3cccnc3)nc3ccccc13)OCO2,·,1.04
CCC1CN(C(=O)NC2CCCC2)c2cc(Cl)ccc2O1 (configuration not stated),·,1.04
O=C(O)Cc1csc2ccccc12,0.6,1.28
CN1C(=O)c2cc(NC(=O)CCC(=O)N3CCOCC3)ccc2N2CCN=C12,·,1.98
O=C(NCCn1cnc2cc(C(=O)NC3CCCC3)ccc21)NC1CCCC1,·,2.53
O=C(O)c1ccc(N=Cc2cccs2)cc1,-2.29,·
CCOc1ccccc1NS(=O)(=O)c1cccs1,-0.74,1.02
O=C(Nc1ccc(Cl)cn1)c1noc2c1CSc1ccccc1-2,0.25,-4.34
CCCNC(=O)NCCc1csc2c1CCCC2,·,-0.11
CC(C)Cc1nn2c(=O)cc(COC(=O)COc3ccccc3)nc2s1,·,0.35
Cc1cccc(-c2nc3c4ccccc4nc(NCc4ccco4)n3n2)c1,-0.11,0.75
O=C(COCc1cc(-c2ccc3c(c2)OCO3)on1)Nc1cc(-c2cccc(Cl)c2)no1,·,0.57
O=S(=O)(NCc1cccn1Cc1ccc(Cl)cc1)c1ccccc1,·,0.97
O=C(O)c1ccc(CN2C(=O)CSC2=S)cc1,-2.09,-1.68
COc1cc(/C=c2\sc3nc4ccccc4n3c2=O)ccc1OCCOc1ccccc1,-3.26,·
Cc1ccc(N2C(=O)C3NN=C(C(=O)OCc4ccccc4)C3C2=O)c(C)c1 (configuration not stated),0.31,-0.31
CCC12CN3CC(CC)(CN(C1)C3c1ccc(Cl)cc1)C2O (configuration not stated),-1.59,1.51
Cc1nc(N)[nH]c(=O)c1Oc1ccc(Cl)cc1,-0.84,·
O=C(C1CCN(c2nc3cccnc3s2)CC1)N1CCN(c2ncccn2)CC1,·,-0.17
CC1CC(=O)Nc2ccccc2N1C(=O)CCC(=O)O (configuration not stated),-0.9,1.71
O=C(Nc1ccc2c(c1)C(=O)c1ccccc1C2=O)c1ccc2ccccc2c1,-1.88,·
COC(=O)C1CCCN1S(=O)(=O)c1ccc2c(ccn2C)c1 (configuration not stated),0,0.15
O=C(CSc1nccn(-c2cccc(Cl)c2)c1=O)c1ccccc1,·,-1.34
Cc1nc2nc[nH]n2c(=O)c1NC(=O)Nc1ccc(Cl)cc1,·,1.31
O=C(c1cnn(-c2ccc(Cl)cc2)c1C1CCNCC1)N1CCN(c2cccc(Cl)c2)CC1,·,0.38
Clc1ccc(-c2noc3ncnc(NCc4ccccc4)c23)cc1,·,1.13
Cc1cc(C)c2c(=O)[nH]sc2n1,-0.84,·

Exported field by field: entries from further up.
> Cc1nc2nc[nH]n2c(=O)c1NC(=O)Nc1ccc(Cl)cc1
  CDC25B-CDK2 inh: ·; HIV TAR-Tat: 1.31
> Cc1cc(C)c2c(=O)[nH]sc2n1
  CDC25B-CDK2 inh: -0.84; HIV TAR-Tat: ·
> O=C(Nc1ccc2c(c1)C(=O)c1ccccc1C2=O)c1ccc2ccccc2c1
  CDC25B-CDK2 inh: -1.88; HIV TAR-Tat: ·
> COC(=O)C1CCCN1S(=O)(=O)c1ccc2c(ccn2C)c1 (configuration not stated)
  CDC25B-CDK2 inh: 0; HIV TAR-Tat: 0.15

Later entries:
molecule,CDC25B-CDK2 inh,HIV TAR-Tat
CCOC(=O)C(C)(C)Sc1nc(-c2ccc(F)cc2)nc2c1c(=O)n(C)c(=O)n2C,0.14,0.66
Cc1onc(-c2ccccc2)c1CNC(=O)Nc1cccc(Cl)c1,-0.33,·
CCOC(=O)c1cnn(-c2ncnc3c2cnn3-c2ccccc2)c1N,1.62,0.38
CCCN1C(SCC(=O)NCCC2=CCCCC2)=NS(=O)(=O)c2ccccc21,·,0.72
CC(C)c1nnc(NC(=O)c2nn(-c3ccc(Cl)cc3)ccc2=O)s1,-0.23,0.29
O=C1C=C(NC2Cc3ccccc3C2)CC(c2cccc(Cl)c2)C1 (configuration not stated),0.51,-1.44
Cn1nc(C(=O)Nc2ccccc2F)c2c1-c1ccccc1SC2,0.84,1.39
COCCNC(=O)c1cc2sc3ccccc3c2s1,-0.76,1.26
COC(=O)c1cc2occc2n1CC(=O)Nc1ccc(OC)cc1OC,-0.74,-1.21
Cc1ccc(C)n1-c1ccsc1C(=O)NN,-1.2,·
CC1(C)Cc2c(c(-c3ccco3)nc3sc4c(NCCN5CCOCC5)ncnc4c23)CO1,0.04,0.15
COc1cc(C)c(S(=O)(=O)N2CCc3cc4ccccc4nc32)cc1C,-1.56,1.49
c1cncc(-c2nn3c(Cn4nnc5ccccc54)nnc3s2)c1,-1.33,2.11
C=CCNc1nc(N)c([N+](=O)[O-])c(Nc2cccc(F)c2)n1,·,1.73
COc1ccc(Cc2nnc3sc(-c4ccncc4)nn23)cc1,-0.43,0.74
Cc1ccccc1-n1c(N)cc(=O)n(Cc2ccccc2)c1=O,-1.44,·
O=C1c2nccnc2C(=O)N1c1ccc(Br)cc1F,-0.77,1.06
CCOc1ccc(CNS(=O)(=O)c2cc(-c3cc(C)no3)ccc2C(C)C)cc1,·,1.11
CC1(C)CC(=O)C2=C(C1)N=C1c3ccccc3C(=O)C1C2c1cccc(F)c1 (configuration not stated),-1.64,-0.39
CC(C)NC(=O)c1cc2nc(-c3ccc(Br)cc3)cc(C(F)(F)F)n2n1,-2.67,-0.6
CCOc1ccc2[nH]c3ncccc3c(=O)c2c1,·,-1.46
Cc1cc2ncn(CC(O)COc3ccc(C(C)C)cc3)c2cc1C (configuration not stated),-0.15,-1.04
CCc1nnc(NC(=O)c2cc3c(C)nc4ccccc4c3o2)s1,-1.83,0.2
CC1=C(c2ccc(F)cc2)S(=O)(=O)N=C1N1CCC(N2CCCCC2)CC1,·,0
Cc1nn(C(C)C(=O)N2CCN(Cc3ccc4c(c3)OCO4)CC2)c(=O)c2c1sc1ccccc12 (configuration not stated),-1.24,0.26
O=C1CC(=O)N2N=C(c3ccccc3)SC2=N1,-3.64,-0.04
Cn1c(=O)c2c(SCC(=O)Nc3ccc(F)cc3F)nc(-c3ccco3)nc2n(C)c1=O,-0.62,·
CSc1ncnc2scc(-c3ccccc3)c12,-1.28,2.47
CC1CC(C)CN(C(=O)c2ccc(CN3CC(=O)N4CSCC4C3=O)cc2)C1 (configuration not stated),·,1.59
CCOC(=O)C1=C(C)N(c2ccccc2)C(=O)C1CC(=O)O (configuration not stated),-1.51,0.84
CCC(CC)C(=O)Nc1nc2c(s1)CC(C)CC2 (configuration not stated),-1.25,2.19
CC(=O)N1c2nc(-c3ccc(Cl)cc3)nn2C2(CCCCC2)[C@@H]2CCCC[C@@H]21,0.37,1.25
C=CCc1ccccc1OCc1cc(=O)n2ccsc2n1,-1.15,0.27
CCS(=O)(=O)c1nc(S(=O)(=O)c2ccc(Cl)cc2)c(N2CCOCC2)s1,0.42,1.65
O=C1CCCc2cc(S(=O)(=O)N3CCCC(C(=O)NC4CC4)C3)ccc2N1 (configuration not stated),·,-0.16
COc1ccc(-c2csc(-c3nc(-c4ccc(OC)cc4)cs3)n2)cc1,-0.92,-0.31
Clc1ccccc1C1SCC2=Nc3ccccc3CN21 (configuration not stated),-2.01,·
COc1ccc2nc(NC(=O)CSc3nnc(-c4cc5ccccc5o4)n3C)sc2c1,·,0.25
CCSC1=C(C#N)C(=O)NC(c2ccc(OC)cc2)S1 (configuration not stated),-0.42,0.62
O=S(=O)(NC1CCCc2ccccc21)c1cccc2nonc12 (configuration not stated),-2.01,·
Cn1c2c(c(=O)n(C)c1=O)CN(Cc1ccccc1)CN2,-1.43,-0.47
CC1CCc2nn(CC(=O)NCCCN3CCCC3)cc2C1 (configuration not stated),-0.44,-0.75
CC(=O)Nc1nnc(CCS(=O)(=O)c2ccc(Br)cc2)s1,-2.25,·
O=S(=O)(NCCCO)c1ccc2c(c1)Cc1cc(S(=O)(=O)NCCCO)ccc1-2,-1.09,·
CC1CCCN(c2c(S(=O)(=O)c3ccc(Cl)cc3)cnc3cc4c(cc23)OCCO4)C1 (configuration not stated),-0.7,1.39
Cc1sc2ncn(CC(=O)NCC(=O)NCCC3=CCCCC3)c(=O)c2c1C,-1.66,·
CCC(C)NC(=O)Cn1ncc2c(=O)oc3ccccc3c21 (configuration not stated),-0.35,·
CN1CCCN(C2CC(=O)N(c3ccc(Br)cc3)C2=O)CC1 (configuration not stated),-0.61,·
COc1ccccc1-n1nnc(-c2nc(-c3ccc(Br)cc3)no2)c1N,·,0.09
Cc1ccc(S(=O)(=O)NCCN2CCOCC2)cc1-c1nnc2c3ccccc3c(C)nn12,-0.02,·
CCc1ccc(-c2cc(C)no2)cc1S(=O)(=O)N1CCCC(CN2CCc3ccccc3C2)C1 (configuration not stated),·,-0.19
CC(C)C(=O)N1c2ccccc2NC2=C(C(=O)CC(c3ccccc3)C2)C1c1ccco1 (configuration not stated),-1.83,·
COCCCN1C(=O)C(=O)/C(=C(/O)c2ccc(C)cc2)C1c1ccc(OC)c(OC)c1 (configuration not stated),-1.39,-0.02
CN(C)C(=S)Nc1ccc(Br)cc1Cl,-1.56,·
CCOC(=O)C1CCN(S(=O)(=O)c2ccc3c(c2)N(C(C)=O)CCO3)CC1,-1.38,1.11
COCCN1C(=O)Cn2cccc2C1C(=O)NC1CCCCC1 (configuration not stated),-2.05,0.65

Next section
molecule,CDC25B-CDK2 inh,HIV TAR-Tat
Cc1nc2sc(C(c3ccco3)N3CC(C)CC(C)C3)c(O)n2n1 (configuration not stated),-1.79,·
Cc1nn(-c2ccccc2)c2sc(C(=O)NC3CCSC3=O)cc12 (configuration not stated),-2.93,0.78
CCOC(=O)c1c(S(=O)(=O)N2CCCC(C(=O)NCc3ccco3)C2)c(C)n(C)c1C (configuration not stated),·,1.6
CC1=C(c2ccc(C)cc2)S(=O)(=O)N=C1Nc1ccc(F)cc1F,-0.66,1.04
O=S(=O)(c1cccs1)N1CCN(Cc2ccc3c(c2)OCO3)CC1,-1.28,0.21
Cc1ccc(NS(=O)(=O)c2ccc3c(c2)N(C)CCO3)cc1C,·,0.57
Cc1cc2oc3c(c(=O)c2cc1C)C(c1ccccc1)N(CCCN1CCOCC1)C3=O (configuration not stated),-2.06,0.12
CCN1CCN(C(=O)C2c3ccccc3C(=O)N(CC(C)C)C2c2cccs2)CC1 (configuration not stated),·,3.41
O=C(Cn1ncn2nc3c(c2c1=O)CCCC3)NCc1ccc(Cl)cc1,·,1.78
O=C(Cn1nc(-c2ccco2)ccc1=O)N1CCc2ccccc21,·,-3.8
COc1cc(S(=O)(=O)N2CCCN(S(=O)(=O)c3ccc(F)c(OC)c3)CC2)ccc1F,-0.62,-1.17
CCc1ccc(-c2cc(C)no2)cc1S(=O)(=O)Nc1ccc(C)cc1C,·,-0.89
Cc1ccccc1-c1nc(Cn2nc(C)c3c(C)onc3c2=O)c(C)o1,·,-1.16
Cn1c(NCc2ccco2)nc2c1c(=O)n(Cc1cccc(Br)c1)c(=O)n2C,-1.29,-0.93
CCN1CN=C2SC(CO)(CO)C(=O)N2C1,-0.15,·
CO/N=C(\C(=O)N[C@@H]1C(=O)N2C(C(=O)O)=C(CSc3nc(=O)c(O)nn3C)CSC12)c1csc(N)n1 (some centres not stated),-1.11,·

Compounds listed so far containing a nitro group on carbon, in the order listed:
molecule,CDC25B-CDK2 inh,HIV TAR-Tat
O=[N+]([O-])c1ccc(CSc2ccccn2)cc1,-2.81,·
Cc1nn(CC(=O)Nc2ccc3nc4n(c(=O)c3c2)CCCC4)c(C)c1[N+](=O)[O-],-1.42,·
C=CCNc1nc(N)c([N+](=O)[O-])c(Nc2cccc(F)c2)n1,·,1.73

(cont.)
molecule,CDC25B-CDK2 inh,HIV TAR-Tat
COc1ccc(-c2noc(-c3nnn(-c4ccc(OC)c(Cl)c4)c3N)n2)cc1,·,1.78
Cc1nc(-c2cccs2)c(CC(=O)NC(C)(C)C)s1,0.02,-2.17
CN(CC(=O)N1CCOCC1)S(=O)(=O)c1cc2c(cc1Cl)NC(=O)CO2,·,-2.13
O=C(CCCN1C(=O)c2cccnc2Sc2ccccc21)NC1CC1,·,-0.01
